Source: PubChem BioAssay (National Center for Advancing Translational Sciences (NCATS))
PINK1 modulator – modulators of PINK1 expression. PINK1 immunofluorescence, high-content cytometry, 24 h. Potency, µM (series often up to 76.6 µM), without a hit: at the highest dose activation (PINK1 increase), hits mostly activators. 410,000 tested, 0.2% active. AID 624263; active = well fitted activation curve with a large enough effect; inconclusive = small, poorly fitted or top-dose-only effect; inactive = flat fitted curve, though single readings scatter; cell line not stated here;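 also: potency is read from the fitted curve at half-maximal effect; % of control where 0% means no effect; nearly all actives have a fitted effect of over 65% in size; a mitochondrial uncoupler was the plate control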
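Stable cell line, 250 cells/well, 12 h attachment; compounds pinned at 5 concentrations, 24 h; CCCP control. Fixed with nuclear dye, primary antibodies 12 h at 10 degrees C, secondary plus cell stain; laser-scanning cytometer read.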
D2 ag – activates the human D2 dopamine receptor. DiscoveRx PathHunter D2 beta-arrestin, luminescence, 90 min; 100% = 57 uM dopamine signal. P14416. activation, % (concentration not given with the values). 360,000 tested, 0.084% active. AID 624465; in the data active = activation above about 40%; inconclusive = about 15% to 40%; inactive = below about 15%; also: compound concentration not given in the record; the text of the record calls up to 30% inactive
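DiscoveRx PathHunter D2 beta-arrestin cells (2,100/well) attached overnight, then compound-stimulated 90 min at 37 C in HBSS/10 mM HEPES/0.1% Tween-20 buffer; beta-galactosidase complementation read by luminescence after 1 h at ambient temperature. Dopamine 57 uM final (EC100) as control.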
Six1-Eya2 blk – inhibitors of human Six1/Eya2 interaction; Q15475+O00167; AlphaScreen GST-Six1/His-Eya2 binding, biochemical; stronger effect = lower value; control for the full effect not named in the record; activity change, % (test concentration not listed); 360,000 tested, 0.56% active; in the data active = activity change below about -65%; inconclusive = about -30% to -65%; inactive = above about -30%; also: % is scaled to controls: 0 for no effect and ±100 for the full control effect; compound concentration not given in the record
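AlphaScreen luminescence read after one hour at 37 °C in darkness. Pin-transferred compounds met GST-Six1 and His-Eya2 protein (5X stock 250 nM/500 nM) plus glutathione donor and Ni-chelate acceptor beads (5X, 50 ug/mL).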
D2 PAM – human D2 receptor positive allosteric modulation. DiscoveRx D2 beta-arrestin cells, luminescence, 90 min; 100% = 57 uM dopamine signal. potentiation, % (concentration not given with the values). 360,000 tested, 0.23% active. AID 624464; active = potentiation of 50% or more; inconclusive = 30% to 50%; inactive = 30% or less;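 also: compound concentration not given in the record; tested on top of an EC20 dose of dopamine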
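PathHunter beta-arrestin assay in DiscoveRx D2 cells. Compounds were added with an EC20 of dopamine (50 nM final) for 90 min at 37 deg C. Luminescence was read 1 h after detection reagent, with 57 uM dopamine as the EC100 control.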
CtBP-E1A inh – blocks the CtBP interaction with E1A; AlphaScreen GST-E1A/His-CtBP binding, 1536-well; stronger effect = lower value; control for the full effect not named in the record; activity change, % (no concentration beside the values); 340,000 tested, 0.49% active; AID 651724; in the data active means activity change below about -65%; inconclusive means about -30% to -65%; inactive means above about -30%; also: % is scaled to controls: 0 for no effect and ±100 for the full control effect; compound concentration not given in the record
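GST-E1A and His-tagged CtBP (125 nM each as 5X stock) were preincubated with pin-transferred compound for 2 h at 37 °C in the dark, then glutathione donor and nickel acceptor beads were added for 1 h before AlphaScreen reading.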
TRPML1 agonist – activates the human TRPML1 channel | TRPML1-expressing cells, Ca2+ dye fluorescence, FDSS; host cell line not named in the record; reference of the full effect not given here | activation, % (concentration not given with the values) | AID 624414 | Q9GZU1 | 410,000 tested, 0.12% active; in the data active = activation above about 50%; inconclusive = about 30% to 50%; inactive = below about 30%; also: 0% is about no effect; the text of the record puts the active cut at 80%
Target sequence (Q9GZU1 whole entry, looked up): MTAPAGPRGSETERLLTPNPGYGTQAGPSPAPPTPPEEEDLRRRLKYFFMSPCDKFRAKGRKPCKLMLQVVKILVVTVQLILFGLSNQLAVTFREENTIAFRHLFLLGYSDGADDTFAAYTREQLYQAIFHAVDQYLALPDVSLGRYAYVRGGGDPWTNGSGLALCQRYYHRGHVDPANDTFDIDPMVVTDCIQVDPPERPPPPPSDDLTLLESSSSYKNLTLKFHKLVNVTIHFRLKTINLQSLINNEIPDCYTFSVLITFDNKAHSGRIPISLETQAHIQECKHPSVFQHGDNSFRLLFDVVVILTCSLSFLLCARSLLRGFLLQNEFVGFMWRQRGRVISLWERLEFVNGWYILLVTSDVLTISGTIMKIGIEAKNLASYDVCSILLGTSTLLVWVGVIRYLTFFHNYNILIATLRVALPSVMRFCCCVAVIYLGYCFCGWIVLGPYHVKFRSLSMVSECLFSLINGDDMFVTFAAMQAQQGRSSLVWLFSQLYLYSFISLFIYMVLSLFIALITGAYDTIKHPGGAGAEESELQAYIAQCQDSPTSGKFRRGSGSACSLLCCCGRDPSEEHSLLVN
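Tet-induced TRPML1-DL cells, 1,500 per well, cultured overnight, were loaded with a no-wash Ca2+ dye for 45–90 min. Calcium fluorescence was recorded on the FDSS for 110 s after compound addition, before the EC80 agonist (4 uM 54-4) was added.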
An asterisk follows results filed as active; ? = inconclusive; nt = not tested or not shown; [ ] = remark or other dose.

Assay codes – A = PINK1 modulator; B = D2 ag; C = Six1-Eya2 blk; D = D2 PAM; E = CtBP-E1A inh; F = TRPML1 agonist
1) O=C(COc1ccc(S(=O)(=O)N2CCCCC2)cc1)NCC1CCCO1 (stereo not given)
  A: 0.2% | B: -5.1 | C: -3.1 | D: -2.6 | E: -1.7 | F: -0.1

2) CCOC(=O)N1CCN(C(=O)c2ccccc2NC(=O)c2ccc(C(C)(C)C)cc2)CC1
  A: 0.2% | B: -5.2 | C: 4.9 | D: -16.9 | E: -5.7 | F: 2.2

3) CC(=O)Nc1cccc(C(=O)OCC(=O)N(c2ccccc2)C2CCS(=O)(=O)C2)c1 (stereo not given)
  A: -4.2% | B: 4.0 | C: 0.5 | D: -64.4 | E: -21.6 | F: 2.2

4) CSc1ccccc1C(=O)NCCCn1ccnc1
  A: 2.2% | B: 4.6 | C: 15.1 | D: -0.6 | E: 6.4 | F: 0.6

5) Cc1cc(S(=O)(=O)Nc2cccc(C(=O)O)c2)c(C)c(S(=O)(=O)c2ccc(Cl)cc2)c1
  A: 3.7% | B: 4.0 | C: -5.0 | D: -4.1 | E: 2.3 | F: -0.3

6) COc1ccc(C(=O)NCC(c2ccco2)N2CCOCC2)cc1OC (stereo not given)
  A: -0.8% | B: -5.3 | C: -7.0 | D: -22.3 | E: -0.4 | F: -0.3

7) c1cc(SC2CCCCC2)cc(-c2nc3cnccn3c2NC2CCCCC2)c1
  A: 7.2% | B: -2.6 | C: 22.4 | D: -31.9 | E: 35.9 | F: 0.8

8) CCCCCCC(=O)Oc1cccc(C2=CC(=O)CC(C)(C)C2=O)c1
  A: 0.0% | B: -9.5 | C: -11.5 | D: 0.2 | E: -2.5 | F: -0.6

9) CCc1noc(C)c1C(=O)OC(C)C(=O)Nc1cc([N+](=O)[O-])ccc1OC (stereo not given)
  A: -2.7% | B: -3.1 | C: 2.1 | D: -25.6 | E: 1.7 | F: 1.9

10) CSCCC(NS(=O)(=O)c1ccccc1F)C(=O)Nc1cccc(C)n1 (stereo not given)
  A: -0.9% | B: -3.8 | C: 0.0 | D: -4.8 | E: 0.0 | F: -0.9

11) C#CCOc1nc2c(c(=O)n(C)c(=O)n2C)n1Cc1ccccc1
  A: 1.7% | B: -4.7 | C: -1.3 | D: -6.1 | E: 5.3 | F: 1.5

12) O=C1Cc2ccccc2C(c2ccc(Cl)cc2)N1 (stereo not given)
  A: 3.6% | B: -2.1 | C: 1.0 | D: -2.9 | E: -3.6 | F: -1.1

13) Cc1nc2cc(C(=O)O)ccc2n1C1CCCCC1
  A: ? | B: 0.9 | C: 5.5 | D: -3.4 | E: -5.8 | F: 0.6

14) CN1C(=O)/C(=C/c2ccc(C(=O)NC3CCCC3)cc2)Oc2ccccc21
  A: 5.8% | B: -0.2 | C: 3.6 | D: -0.9 | E: nt | F: -0.6

15) O=C(c1ccco1)N1CCN=C1SCc1cccc(F)c1
  A: 14.6% | B: -1.6 | C: 7.2 | D: -7.6 | E: -23.2 | F: -0.1

16) NS(=O)(=O)c1ccc(CCNC(=O)C(c2ccccc2)c2ccccc2)cc1
  A: 6.9% | B: 4.8 | C: 0.9 | D: -1.8 | E: 4.0 | F: -0.4

17) O=c1oc(Nc2cccc(Cl)c2)nc2ccccc12
  A: 2.4% | B: -10.4 | C: 5.7 | D: -1.0 | E: 6.6 | F: -1.2

18) CS(=O)(=O)N(CC(=O)NCc1ccco1)Cc1ccc(Cl)cc1
  A: 1.5% | B: -3.7 | C: 3.2 | D: -1.0 | E: 11.0 | F: 0.1

19) O=C(NCc1ccccn1)C1CCN(S(=O)(=O)c2ccccc2C(F)(F)F)CC1
  A: 0.7% | B: 0.1 | C: -7.8 | D: -5.6 | E: 2.2 | F: -0.1

20) COC(=O)c1ccc(N2CCN(C(=O)C3CC3)CC2)c([N+](=O)[O-])c1
  A: 1.3% | B: -0.1 | C: 8.4 | D: -1.4 | E: -0.3 | F: 1.4

Among those listed so far, these contain a furan ring, fused or not:
Assay codes – A = PINK1 modulator; B = D2 ag; C = Six1-Eya2 blk; D = D2 PAM; E = CtBP-E1A inh; F = TRPML1 agonist
6) COc1ccc(C(=O)NCC(c2ccco2)N2CCOCC2)cc1OC (stereo not given)
  A: -0.8% | B: -5.3 | C: -7.0 | D: -22.3 | E: -0.4 | F: -0.3

15) O=C(c1ccco1)N1CCN=C1SCc1cccc(F)c1
  A: 14.6% | B: -1.6 | C: 7.2 | D: -7.6 | E: -23.2 | F: -0.1

18) CS(=O)(=O)N(CC(=O)NCc1ccco1)Cc1ccc(Cl)cc1
  A: 1.5% | B: -3.7 | C: 3.2 | D: -1.0 | E: 11.0 | F: 0.1

3 compounds from above, sorted by their value in D2 PAM, smallest number first.
no.	smiles	D2 PAM
13	Cc1nc2cc(C(=O)O)ccc2n1C1CCCCC1	-3.4
12	O=C1Cc2ccccc2C(c2ccc(Cl)cc2)N1 (stereo not given)	-2.9
20	COC(=O)c1ccc(N2CCN(C(=O)C3CC3)CC2)c([N+](=O)[O-])c1	-1.4

The listing picks up with the 2 entries that preceded the break.
Assay codes – A = PINK1 modulator; B = D2 ag; C = Six1-Eya2 blk; D = D2 PAM; E = CtBP-E1A inh; F = TRPML1 agonist
19) O=C(NCc1ccccn1)C1CCN(S(=O)(=O)c2ccccc2C(F)(F)F)CC1
  A: 0.7% | B: 0.1 | C: -7.8 | D: -5.6 | E: 2.2 | F: -0.1

20) COC(=O)c1ccc(N2CCN(C(=O)C3CC3)CC2)c([N+](=O)[O-])c1
  A: 1.3% | B: -0.1 | C: 8.4 | D: -1.4 | E: -0.3 | F: 1.4

21) Cc1ccc(NC(=O)c2cc([N+](=O)[O-])ccc2NCc2cccnc2)cc1Cl
  A: 4.5% | B: -1.0 | C: -18.9 | D: -18.7 | E: -24.0 | F: 0.8

22) CCOC(=O)Oc1ccc2c(=O)c(Oc3cccc(C)c3)coc2c1
  A: -5.0%[38.3 µM] | B: 0.6 | C: -29.8 | D: -8.5 | E: -27.6 | F: 1.9

23) Cc1cc(C)cc(-n2nnc(C(=O)NCc3ccccc3Cl)c2N)c1
  A: 4.6% | B: -2.0 | C: 20.5 | D: 7.8 | E: 0.0 | F: 1.2

24) O=C(CSc1nnnn1C1CCCCC1)Nc1ccccc1N1CCOCC1
  A: 0.3% | B: 6.3 | C: 8.7 | D: -8.8 | E: -3.8 | F: 3.3

25) COc1ccc(CNC(=O)CSc2nnc(C)c(=O)[nH]2)cc1
  A: -0.5% | B: 0.1 | C: 3.1 | D: 1.6 | E: 0.1 | F: 1.4

26) CCOC(=O)c1c(C)n(-c2ccc(C)cc2)c2c(C(C(C)=O)C(=O)O)c(Br)c(O)c(O)c12 (stereo not given)
  A: -1.8% | B: ? | C: -6.8 | D: 70.0* | E: -0.3 | F: 1.0

27) NCCc1nnc(SCc2c(F)cccc2Cl)o1
  A: 11.6%[38.3 µM] | B: -2.6 | C: 0.9 | D: 2.6 | E: 7.0 | F: 1.4

28) O=C1OC(c2cc(Br)c(O)c(Br)c2)c2ccccc21 (stereo not given)
  A: 5.6% | B: -0.9 | C: -5.5 | D: -3.6 | E: -22.8 | F: 1.7

29) COc1ccc2nc(NC(=O)CCNC(=O)c3ccco3)sc2c1
  A: -0.3% | B: 5.9 | C: -0.9 | D: -0.7 | E: -1.6 | F: 2.1

30) O=C(CSc1nnnn1-c1ccccc1)Nc1ncc2c(n1)CC(c1ccccc1)CC2=O (stereo not given)
  A: ? | B: -1.8 | C: 3.9 | D: 0.5 | E: 10.7 | F: 0.9

31) CCOC(=O)c1ccc(NC(=O)c2cc3ccccc3o2)cc1
  A: 2.2% | B: 2.4 | C: 2.0 | D: -12.1 | E: 13.0 | F: -1.3

32) COC(=O)Nc1ccc(S(=O)(=O)NCc2ccccn2)cc1
  A: 1.9% | B: -2.5 | C: 4.8 | D: 4.1 | E: 7.8 | F: 0.6

33) Cc1cc(Nc2ccccc2)n(-c2cccc(Cl)c2)n1
  A: 4.1% | B: 3.3 | C: 5.3 | D: -5.4 | E: -1.5 | F: 2.7

34) CCSC1(SCC)N=C(N)C2(C#N)C(c3ccc(OC)c(OC)c3OC)C12C#N (stereo not given)
  A: 0.4% | B: -0.9 | C: -0.7 | D: 0.6 | E: 2.5 | F: 1.4

35) Cc1ccc(-c2nnc(CN3CCCCC3C)o2)cc1 (stereo not given)
  A: 1.3% | B: -3.1 | C: -16.7 | D: -17.6 | E: -10.2 | F: nt

36) O=C(Nc1ccccc1Oc1ccccc1)C1CCCC1
  A: 2.4% | B: -1.0 | C: 7.7 | D: -9.4 | E: 11.6 | F: 0.9
